Screening data deposited in PubChem by Broad Institute.
Hedgehog cleavage = Hh protein inhibition, biochemical readout – plate reader, single concentration, primary screen (AID 588832) | Biochemical plate reader assay, Hedgehog inhibition; active compounds read high | inhibition, % at 30.3 µM | 8,000 tested, under 10 active; in the data active means inhibition from about 57%;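 further: 0% = neutral control wells and 100% = positive control wells; cholesterol-driven self-cleavage of fly hedgehog protein by fluorescence polarization; read one hour after cholesterol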
Starred values were filed as active, the others as inactive. Only part of the results is shown. The share of hits here may be higher or lower than overall.

A first look:
What do the screens show for `CC(/C=C/C1(O)C(C)CC(O)CC1(C)C)OC1OC(CO)C(O)C(O)C1O` (stereo not drawn)?
Hedgehog cleavage: 7

What do the screens show for `Nc1nc(-c2ccccc2)c(-c2ccc([N+](=O)[O-])cc2)s1`?
Hedgehog cleavage: 5

Main list, from the first entry:
What do the screens show for `CC(/C=C/C1(O)C(C)CC(O)CC1(C)C)OC1OC(CO)C(O)C(O)C1O` (stereo not drawn)?
Hedgehog cleavage: 7

What do the screens show for `Nc1nc(-c2ccccc2)c(-c2ccc([N+](=O)[O-])cc2)s1`?
Hedgehog cleavage: 5

What do the screens show for `CC(=O)NC(CCS(C)(=O)=O)C(=O)Nc1ccc(Cl)c(Cl)c1` (stereo not drawn)?
Hedgehog cleavage: 5

How did Cn1c(C(=O)NCCc2ccsc2)cc2c(=O)n(C)c3ccccc3c21 do in these assays?
Hedgehog cleavage: 11

How did O=C(CSc1cn(Cc2ccccc2)c2ccccc12)N1CCOCC1 do in these assays?
Hedgehog cleavage: 3

How did COc1ccc(-n2c(Cc3cccn3C)nnc2SCC(=O)Nc2ccccc2F)cc1 do in these assays?
Hedgehog cleavage: 22

What do the screens show for `NC(=O)c1cc(S(=O)(=O)Nc2cccc(F)c2)co1`?
Hedgehog cleavage: 12

How did Cc1ccc2nc(NC(=O)CCn3c(=O)sc4ccccc43)sc2c1 do in these assays?
Hedgehog cleavage: 3

What do the screens show for `O=C(CN1C(=O)c2cccnc2Oc2ccc(Cl)cc21)NC1CCCCC1`?
Hedgehog cleavage: 6

How did COC(=O)c1ccc[n+](CCc2c[nH]c3ccccc23)c1 do in these assays?
Hedgehog cleavage: 5

How did Cc1onc(-c2ccccc2Cl)c1C(=O)NCCn1c(C)cc2ccccc21 do in these assays?
Hedgehog cleavage: -4

What do the screens show for `COc1ccc(/C=C2\SC(=S)N(CC(=O)Nc3nnc(C)s3)C2=O)cc1`?
Hedgehog cleavage: 8

What do the screens show for `COc1cccc(C2CC(c3cccs3)=NN2C(=O)CSc2nc3c(cnn3-c3ccc(F)cc3)c(=O)[nH]2)c1OC` (stereo not drawn)?
Hedgehog cleavage: 5

What do the screens show for `CCOC(=O)N1CCN(S(=O)(=O)c2ccc(C(=O)NNc3nc4c(C)cc(C)cc4s3)cc2)CC1`?
Hedgehog cleavage: 4

How did COCCn1c(SCc2ccc(C(=O)OC)o2)nnc1-c1c[nH]c2ccccc12 do in these assays?
Hedgehog cleavage: 1

Results for COc1ccc2[nH]c3c(c2c1)CCN1C(=O)N([C@@H](C)C(=O)NCc2ccc(F)cc2)C(=O)[C@]31C ?
Hedgehog cleavage: 9

What do the screens show for `CCS(=O)(=O)NC(C)C(c1cccs1)N1CCN(c2ccc(OC)cc2)CC1` (stereo not drawn)?
Hedgehog cleavage: 9

What do the screens show for `O=C(NCCN1C(=O)C2C3C=CC(C3)C2C1=O)NCc1ccccc1` (stereo not drawn)?
Hedgehog cleavage: 13

What do the screens show for `Cc1ccc(-c2nn3c(C)nnc3s2)cc1NC(=O)C(C)C`?
Hedgehog cleavage: 9

What do the screens show for `COc1cc([C@H]2c3c(cc(OC)c(O)c3OC)C[C@@H](CO)[C@@H]2CO[C@@H]2O[C@H](CO)[C@@H](O)[C@H](O)[C@H]2O)cc(OC)c1O`?
Hedgehog cleavage: 5

How did CCOC(=O)C(C)Sc1nc(N)c(NC(=O)c2ccc(OC)c(OC)c2)c(=O)[nH]1 (stereo not drawn) do in these assays?
Hedgehog cleavage: 7

Results for CC(C)[C@@H](NC(=O)C1CCN(C(=O)[C@@H]2CCCN2C(=O)OC(C)(C)C)CC1)C(=O)NCc1ccc(F)cc1 ?
Hedgehog cleavage: 10

How did CN(C1CCCCC1)S(=O)(=O)c1ccc2c(c1)c(=O)c(C(=O)NCCN1CCCC1)cn2C do in these assays?
Hedgehog cleavage: 0

How did O=C(CCn1c(=O)oc2ccccc21)Nc1ccc2c(c1)OCCO2 do in these assays?
Hedgehog cleavage: 3

Results for CC(CN(C)Cc1ccccc1)OC(=O)C1COc2ccccc2O1 (stereo not drawn) ?
Hedgehog cleavage: 9

What do the screens show for `Cc1ccc(S(=O)(=O)NCc2ccc3[nH]c(C)cc3c2)cc1`?
Hedgehog cleavage: 4

Results for CC(C)N(CCNC(=O)c1cn(C)c2ccc(S(=O)(=O)N(C)C)cc2c1=O)Cc1ccccc1 ?
Hedgehog cleavage: 10

What do the screens show for `N#CCCN1CCN(S(=O)(=O)c2ccc(S(=O)(=O)NC3CCCC3)cc2)CC1`?
Hedgehog cleavage: 21

How did C#CCSc1nnc(-c2c[nH]c3ccccc23)n1C do in these assays?
Hedgehog cleavage: 2

How did COc1ccccc1-n1c2c(cc(C(=O)N3CCC(C)CC3)c1=O)C(=O)CC(C)(C)C2 do in these assays?
Hedgehog cleavage: 8

How did Cc1ccc2c(c1)N(C(=O)CCC(=O)NCCN1CCOCC1)CCO2 do in these assays?
Hedgehog cleavage: 7

Results for CN(C)CCN1C(=O)c2oc3ccc(F)cc3c(=O)c2C1c1ccncc1 (stereo not drawn) ?
Hedgehog cleavage: -9

Results for COc1ccc(-c2noc(N3CCCC(C(=O)Nc4cc(F)ccc4F)C3)n2)cc1 (stereo not drawn) ?
Hedgehog cleavage: 4

What do the screens show for `Cc1cc2c(cc1S(=O)(=O)N1CCN(c3cccc(C)c3C)CC1)OCC(=O)N2`?
Hedgehog cleavage: 4

What do the screens show for `O=C(NCCC1=CCCCC1)C1CCCN(S(=O)(=O)c2cccc3cccnc23)C1` (stereo not drawn)?
Hedgehog cleavage: 0

How did O=C(Cn1nc(Cc2cccnc2)c2ccccc2c1=O)N1CCN(C(=O)c2ccco2)CC1 do in these assays?
Hedgehog cleavage: 12

Results for O=C(CSCC(=O)N1CCOCC1)Nc1nc(-c2ccc3c(c2)OCO3)cs1 ?
Hedgehog cleavage: -5

What do the screens show for `COc1ccc(Nc2cc(C)nc3nc(C)nn23)cc1Cl`?
Hedgehog cleavage: 11

What do the screens show for `CCOC(=O)C(CC)n1cnc2c(nnn2-c2ccccc2)c1=O` (stereo not drawn)?
Hedgehog cleavage: 9

How did COc1cc(C(=O)OC2CC3CCC2(C)C3(C)C)ccc1OC(C)=O (stereo not drawn) do in these assays?
Hedgehog cleavage: 9

What do the screens show for `CCC1CCCCN1S(=O)(=O)c1ccc2[nH]c(=O)ccc2c1` (stereo not drawn)?
Hedgehog cleavage: 3

What do the screens show for `COc1ccc(Cl)cc1N1C(=O)C2CCCN2C1c1ccc(F)cc1` (stereo not drawn)?
Hedgehog cleavage: 0

How did Cc1ccc(CNC(=O)CNS(=O)(=O)c2ccc3c(c2)C(C)(C)C(=O)N3C)cc1 do in these assays?
Hedgehog cleavage: 7

Results for COc1ccc(CNC(=O)c2ccc(CS(=O)(=O)c3ccc(Br)cc3)o2)cc1 ?
Hedgehog cleavage: 17

How did Cc1ccc(NC(=O)CCc2nnc3ccc(N4CCOCC4)nn23)cc1C do in these assays?
Hedgehog cleavage: 2

Results for CCS(=O)(=O)NC(C)C(c1cccs1)N1CCN(c2ccc(F)cc2)CC1 (stereo not drawn) ?
Hedgehog cleavage: 5

Results for CC(C)c1nc(SCC(=O)c2ccccc2)c2c(=O)n(C)c(=O)n(C)c2n1 ?
Hedgehog cleavage: 5

How did CCOC(=O)c1sc2nc(NC(=O)C3CC3)sc2c1C do in these assays?
Hedgehog cleavage: 5

Results for COc1cccc(NC(=O)CSc2nnc(Cn3c(=O)sc4ccccc43)n2C)c1 ?
Hedgehog cleavage: 7

Results for CN(C)c1ccc(CNC(=O)CCS(=O)(=O)c2ccc3c(c2)n(C)c(=O)c(=O)n3C)cc1 ?
Hedgehog cleavage: 5

How did CC1CN(c2cc(=O)n(-c3ccc(Cl)cc3)c(=O)[nH]2)CC(C)O1 (stereo not drawn) do in these assays?
Hedgehog cleavage: 13

What do the screens show for `CC(Sc1nnc(Cn2c(=O)sc3ccccc32)n1C)c1ccccc1` (stereo not drawn)?
Hedgehog cleavage: 10

How did O=C(NCC1CCCO1)c1ccc(CS(=O)(=O)c2ccc(Br)cc2)o1 (stereo not drawn) do in these assays?
Hedgehog cleavage: 15

Results for Cc1ccc(CNC(=O)CCC(=O)N2CC(C)Sc3ccccc32)cc1 (stereo not drawn) ?
Hedgehog cleavage: 15

Results for CSCC[C@@H](C(=O)NCc1cccs1)N1Cc2ccccc2C1=O ?
Hedgehog cleavage: 7

Results for O=C(NCc1ccco1)C(=O)NCC1OCCN1S(=O)(=O)c1ccc(Cl)cc1 (stereo not drawn) ?
Hedgehog cleavage: 5

How did O=C(Cn1cc2c(n1)CCCC2)NCCc1ccccc1 do in these assays?
Hedgehog cleavage: 13

What do the screens show for `CC(CCc1ccccc1)NC(=O)C1CCN(C(=O)c2sccc2-n2cccc2)CC1` (stereo not drawn)?
Hedgehog cleavage: 4

How did Cc1cc(=O)oc2c3c(cc(OCC(=O)N4CCC(C(=O)O)CC4)c12)OC(C)(C)CC3 do in these assays?
Hedgehog cleavage: 7

How did O=C(Cc1ccc(NC2=NC3CS(=O)(=O)CC3S2)cc1)N1CCN(c2ccc(F)cc2)CC1 (stereo not drawn) do in these assays?
Hedgehog cleavage: 4

A portion from the list above, as a working copy:
What do the screens show for `CC(CCc1ccccc1)NC(=O)C1CCN(C(=O)c2sccc2-n2cccc2)CC1` (stereo not drawn)?
Hedgehog cleavage: 4

How did Cc1cc(=O)oc2c3c(cc(OCC(=O)N4CCC(C(=O)O)CC4)c12)OC(C)(C)CC3 do in these assays?
Hedgehog cleavage: 7

How did O=C(Cc1ccc(NC2=NC3CS(=O)(=O)CC3S2)cc1)N1CCN(c2ccc(F)cc2)CC1 (stereo not drawn) do in these assays?
Hedgehog cleavage: 4

(continued)
How did CCOC(=O)C(C)Oc1cccc2c(=O)n(CC(=O)NCc3ccco3)ccc12 (stereo not drawn) do in these assays?
Hedgehog cleavage: 11

Results for Cc1ccc(C)c(N2CCN(C(=O)c3ccc(NC4=NC5CS(=O)(=O)CC5S4)cc3)CC2)c1 (stereo not drawn) ?
Hedgehog cleavage: 5

How did COc1ccc(-c2nc(CSCC(=O)NCc3ccc4c(c3)OCO4)c(C)o2)cc1 do in these assays?
Hedgehog cleavage: 6

How did O=c1[nH]cnc2ccccc12 do in these assays?
Hedgehog cleavage: 7

What do the screens show for `CCOC(=O)CSc1nc(-c2cccs2)nc2c1c(=O)n(C)c(=O)n2C`?
Hedgehog cleavage: 10

What do the screens show for `CCOC(=O)N1CCC(N2CC34C=CC(O3)C(C(=O)Nc3ccc(C(C)C)cc3)C4C2=O)CC1` (stereo not drawn)?
Hedgehog cleavage: 0

Results for CCC1(C)OC(=O)N2CCc3c(C)[nH]c4c(C)ccc(c34)C21C (stereo not drawn) ?
Hedgehog cleavage: 4

Results for O=C(CCS(=O)(=O)c1ccccc1)Nc1nc(-c2ccccn2)cs1 ?
Hedgehog cleavage: 9

What do the screens show for `COC(=O)C1C2C=CC3(CN(C(C)C)C(=O)C13)O2` (stereo not drawn)?
Hedgehog cleavage: 9

What do the screens show for `CC(=O)N1c2ccc(S(=O)(=O)N3CCCC(C(=O)Nc4cccc(F)c4)C3)cc2CC1C` (stereo not drawn)?
Hedgehog cleavage: 7

Results for Cc1noc(/C=C/N(C)C)c1S(=O)(=O)N1CCCC(C(=O)NC2CCCCC2C)C1 (stereo not drawn) ?
Hedgehog cleavage: 4

Results for CCOc1ccccc1NC1c2ccccc2C(=O)N1Cc1ccco1 (stereo not drawn) ?
Hedgehog cleavage: 11

The closing two records of the part above come first, to join the parts:
Results for Cc1noc(/C=C/N(C)C)c1S(=O)(=O)N1CCCC(C(=O)NC2CCCCC2C)C1 (stereo not drawn) ?
Hedgehog cleavage: 4

Results for CCOc1ccccc1NC1c2ccccc2C(=O)N1Cc1ccco1 (stereo not drawn) ?
Hedgehog cleavage: 11

Results for Cc1cc(Nc2cc(F)ccc2C)n2nc(C)nc2n1 ?
Hedgehog cleavage: -5

How did Cc1ccccc1C(=O)OCn1nnc2ccccc2c1=O do in these assays?
Hedgehog cleavage: -3

Results for CCn1c(C(=O)N2CCC(C(=O)NCc3ccc4c(c3)OCO4)CC2)cc2sccc21 ?
Hedgehog cleavage: 9

What do the screens show for `COc1ccc2[nH]cc(CC(=O)O)c2c1`?
Hedgehog cleavage: 5

What do the screens show for `CCn1c(SCC(=O)N2CCN(c3ccccc3)CC2)nc2c(c1=O)SC(C)C2` (stereo not drawn)?
Hedgehog cleavage: 10

Results for CCCCC(CC)CO (stereo not drawn) ?
Hedgehog cleavage: 2

What do the screens show for `COC(=O)c1cccc2nc3c(C(C)O)cccc3nc12` (stereo not drawn)?
Hedgehog cleavage: 11

What do the screens show for `COc1ccc(CCNC(=O)C(=O)NCC2OCCN2S(=O)(=O)c2ccc(OC)c(OC)c2)cc1OC` (stereo not drawn)?
Hedgehog cleavage: 4

Results for COc1ccc(-n2c(SCC(=O)N3CCN(c4ccccc4)CC3)nc3c(c2=O)SCC3)cc1 ?
Hedgehog cleavage: 10

What do the screens show for `Cc1ccc2c(c1)N(C(=O)CCC(=O)NCc1cccnc1)CCO2`?
Hedgehog cleavage: 7

Results for CCOC(=O)N1CCN(C(=O)CS(=O)Cc2nc(-c3ccc(C)cc3)oc2C)CC1 (stereo not drawn) ?
Hedgehog cleavage: -4

Results for CN(C)CCCN1C(=O)c2oc3ccc(Cl)cc3c(=O)c2C1c1cccnc1 (stereo not drawn) ?
Hedgehog cleavage: 1

What do the screens show for `Cn1cc(S(=O)(=O)N2CCN(c3ccccc3F)CC2)c(=O)n(C)c1=O`?
Hedgehog cleavage: 3

How did CCc1ccc(S(=O)(=O)NCCc2cn3ccsc3n2)s1 do in these assays?
Hedgehog cleavage: 5

What do the screens show for `Cc1ccc(NC(=O)c2cc(S(=O)(=O)N3CCCC3)cn2C)cc1`?
Hedgehog cleavage: 9

How did CC1CC2CCCC(O)=C2C(=O)O1 (stereo not drawn) do in these assays?
Hedgehog cleavage: 9

How did C[C@@H]1CC[C@@]23COC(=O)C2=CCC[C@@H]3[C@@]1(C)CC/C(=C/CO)CO do in these assays?
Hedgehog cleavage: 5

What do the screens show for `Nc1nc(SCC(=O)Nc2ccccc2)[nH]c(=O)c1NC(=O)c1cccs1`?
Hedgehog cleavage: 10

How did Cc1cc2ccccc2n1CCNC(=O)C(C)(C)C do in these assays?
Hedgehog cleavage: 57*

What do the screens show for `Cn1cc(S(=O)(=O)CC(=O)N2CCc3ccccc32)c2ccccc21`?
Hedgehog cleavage: 5
